# Cruzain inh Det: inhibitors of Trypanosoma cruzi cruzain with detergent; P25779; purified cruzain, Z-FR-AMC fluorescence, 0.01% Triton; Potency, µM, inactives show max response, negative = inhibition, most hits filed as inhibitors; hit rate 0.43% among 200,000; AID 1478;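 further: plate controls were neutral wells for no effect and buffer without enzyme for full effect; nearly all actives have a fitted effect of over 40% in size; top concentration of the series not given in the record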
# Target sequence (P25779 123-467 limits assumed): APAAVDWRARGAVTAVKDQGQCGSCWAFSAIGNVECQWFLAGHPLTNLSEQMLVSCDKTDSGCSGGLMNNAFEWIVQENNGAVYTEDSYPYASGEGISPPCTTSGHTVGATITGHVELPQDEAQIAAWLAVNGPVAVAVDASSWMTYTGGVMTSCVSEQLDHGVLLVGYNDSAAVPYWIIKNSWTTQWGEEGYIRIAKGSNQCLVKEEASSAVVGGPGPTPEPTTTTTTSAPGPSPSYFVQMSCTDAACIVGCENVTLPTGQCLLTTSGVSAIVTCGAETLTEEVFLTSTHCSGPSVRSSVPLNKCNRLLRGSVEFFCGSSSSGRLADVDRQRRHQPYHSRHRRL
#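 Steps: dispense cruzain (1.5 nM final) in acetate buffer pH 5.5 with DTT and 0.01% Triton X-100; pin-transfer compounds; incubate 15 min RT; add Z-FR-AMC (2 uM final); read fluorescence every 30 s, using the 60 s intensity change.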
# 2A StopGo: FMDV 2A StopGo reporter, luciferase signal; AID 1159524; human cells with a luciferase reporter of 2A StopGo recoding; control for the full effect not named in the record; Potency, µM (highest dose often 57.9 µM), inactives show at the top dose signal change, negative = less light; hit rate 1.2% among 410,000; active = well fitted falling curve with a large enough effect; inconclusive = small, poorly fitted or top-dose-only effect; inactive = no such curve, though single readings can be large or run the other way; tested in HEK293T cells; further: on the % scale 0 is the no-effect control and ±100 the full control effect; nearly all actives have a fitted effect of over 45% in size; luciferase light after 4 h
# Cruzain inh noDet: cruzain (T. cruzi) inhibition without detergent. P25779. purified cruzain, Z-FR-AMC fluorescence, no detergent. Potency, µM, inactives show max response, negative = inhibition, hits mostly inhibitors. hit rate 2.3% among 200,000. AID 1476;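 further: plate controls were enzyme without inhibitor for no effect and buffer without enzyme for full effect; nearly all actives have a fitted effect of over 40% in size; top concentration of the series not given in the record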
#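 Detergent-free condition (0.00005% Triton X-100) in acetate buffer pH 5.5 with DTT. 1.5 nM enzyme and compound were pre-mixed 15 min, then 2 uM Z-FR-AMC substrate added; reaction progress from fluorescence change between first and third reads (60 s).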
# SARS PLP yeast: blocks SARS-CoV papain-like protease in a yeast assay; S. cerevisiae expressing SARS-CoV PLpro, growth rescue; control for the full effect not named in the record; Potency, µM (series often up to 32.9 µM), for inactives: at the top dose activity, positive = growth rescue; hit rate 0.19% among 330,000; AID 485353; active means well fitted rising curve with a large enough effect; inconclusive means small, poorly fitted or top-dose-only effect; inactive means no such curve, though single readings can be large or run the other way; further: 0% is about no effect; nearly all actives have a fitted effect of over 55% in size; growth read by luminescence after 48 h
# RE007 growth inh: less growth of the S. pombe RE007 Vpr strain; hit rate 0.21% among 360,000; S. pombe RE007 Vpr strain, BacTiter-Glo ATP luminescence, 24 h; control for the full effect not named in the record; Potency, µM (top dose mostly 92.2 µM), for the others: at the highest dose activity change, negative = less growth; active = well fitted falling curve with a large enough effect; inconclusive = small, poorly fitted or top-dose-only effect; inactive = no such curve, though single readings can be large or run the other way;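 further: on the % scale 0 is the no-effect control and ±100 the full control effect; nearly all actives have a fitted effect of over 50% in size; the assay follows cell death caused by Vpr and the record does not say whether a fall means rescue or toxicity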
#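 Fission yeast RE007 carrying one integrated HIV-1 vpr copy, seeded at OD 0.01 in PMG+AL medium with 23 nL pinned compound. Grown 24 h at 30 degrees; viability read by BacTiter-Glo luminescence after 5 min.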
# NS1 inh: influenza NS1 inhibition | AID 2326 | S. cerevisiae slowed by influenza A NS1, growth recovery by OD600 | hit rate 0.4% among 270,000 | Potency, µM (doses to about 46.1 µM), for the others: at the highest dose activity, positive = more growth; active means well fitted rising curve with a large enough effect; inconclusive means small, poorly fitted or top-dose-only effect; inactive means no such curve, though single readings can be large or run the other way; further: nearly all actives have a fitted effect of over 50% in size
#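 Read-out: OD600 growth recovery of NS1-expressing budding yeast. Cells grown overnight at 30C in -URA glucose medium, washed, resuspended and diluted 1:100 in 2% galactose assay medium, pH 6.0. Same strain lacking NS1 served as positive control.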
# Marburg entry inh: Marburg virus entry inhibition. Marburg virus pseudotyped entry inhibition, cell reporter; control for the full effect not named in the record; about a third of the inactives were read at about 46 µM. Potency, µM (series often up to 37.8 µM), without a hit: at the top dose activity change, negative = inhibition, usual class: inhibitors. hit rate 1.8% among 300,000; active = well fitted inhibition curve with a large enough effect; inconclusive = small, poorly fitted or top-dose-only effect, or effect the other way; inactive = flat fitted curve, though single readings scatter; tested in HEK293 cells; about a fifth of its hits are not listed in these tables; further: on the % scale 0 is the no-effect control and ±100 the full control effect; luciferase read-out
# LASV entry inh: Lassa virus entry inhibition. Potency, µM (series often up to 37.9 µM), for inactives: top-dose activity change, negative = inhibition, hits mostly inhibitors. hit rate 1.2% among 300,000. AID 540256. Lassa virus pseudotype entry inhibition, cell reporter; control for the full effect not named in the record; active means well fitted inhibition curve with a large enough effect; inconclusive means small, poorly fitted or top-dose-only effect, or effect the other way; inactive means flat fitted curve, though single readings scatter; tested in HEK293 cells; further: on the % scale 0 is the no-effect control and ±100 the full control effect; nearly all actives have a fitted effect of over 50% in size; luciferase read-out
# An asterisk follows results filed as active; ? = inconclusive; . = no result given; & = joins results of further samples; [ ] = another dose, or the depositor's remark. Unless noted, the call rests on the fitted dose curve; in most records, active means well fitted curve in the direction sought with a large enough effect; inconclusive means small, poorly fitted or top-dose-only effect, or another doubt; inactive means no such curve, though single readings can be large; an effect the other way counts as inactive or inconclusive. Potency means the concentration at half of the fitted maximal effect. Outcome played no part in choosing rows, and some 4.7% of all compounds hit somewhere here.
SMILES,Cruzain inh Det,2A StopGo,Cruzain inh noDet,SARS PLP yeast,RE007 growth inh,NS1 inh,Marburg entry inh,LASV entry inh
O=C(CSCc1ccc([N+](=O)[O-])cc1)NC1CC1,-2.6%,-4%,11%,7%,5%,19%,-19%,-1%
O=C(Cn1c(=O)oc2ccccc21)NC(=O)NCc1ccco1,-2.9%,-11%,1%,-3%,11%,2%,?,-11%
O=C(Nc1cccc(O)c1)c1ccc(NC(=O)c2cccs2)cc1,.,-6%,.,8%,-17%,-1%,?,-16%
CNC(=O)c1c(I)c(C(=O)NCC(=O)Nc2c(I)c(C(=O)O)c(I)c(C(=O)NCCO)c2I)c(I)c(N(C)C(C)=O)c1I,1.1%,-23%,-9%,-25%,-6%[18.4 µM],.,.,.
CCOP(=O)(OCC)C(NC(=O)C(Cl)Cl)C(Cl)(Cl)Cl (stereo not given),1.8%,-24%,2%,-7%,6%,-8%,-4%,17%
CC(C)c1nc2sc3c(=O)[nH]cnc3c2c2c1CCC2,-2.6%,7%,?,1%,5%,10%,2%,5%
CCOC(=O)/C=C1\CN(Cc2cc(OC)c(OC)c(OC)c2)S(=O)(=O)c2ccc(C(F)(F)F)cc21,.,?,.,2%,-3%,0%,.,.
O=C(COC(=O)[C@@H]1CC(O)CN1S(=O)(=O)c1ccc2c(c1)OCCO2)Nc1ccccc1F (stereo not given in full),.,11%,.,5%,0%,.,-5%,-2%
Cc1cc(=O)n2[nH]c(-c3ccccc3Cl)cc2n1,1.1%,7%,-10%,0%,-15%,0%,?,-12%
Cc1cc2nnc(SC3CCCCN(C(=O)c4ccc(F)cc4)C3=O)n2c2ccccc12 (stereo not given),-5.3%,-23%,?,-1%,10%,9%,-24%,0%
CS(=O)(=O)N(CC(=O)NCC1CCCO1)c1cc(Cl)c(Cl)cc1Cl (stereo not given),.,-4%,.,0%,2%,2%,-1%,-16%
Cc1ccc(NC(=O)CCNS(=O)(=O)c2cccc3nonc23)cc1Cl,-5.2%,6%&-7%,-3%,4%,6%,.,-1%&11%[46.1 µM],-10%&18%[46.1 µM]
Cc1cc(O)ccc1N/C=C(\C#N)c1nc2ccccc2o1,-3.2%,9%,-7%,7%,-24%,7%,0%,29%
Cc1cc(C)nc(SCC(=O)OCC(=O)Nc2nc3ccccc3s2)n1,-4.7%,39%[activator],-1%,14%,14%,-8%,-11%,?
COc1ccc(N2CC(NC(=O)N3CCN(c4ccccc4)CC3)CC2=O)cc1 (stereo not given),.,-25%,.,-2%,24%,.,3%[46.1 µM],-1%[46.1 µM]
Fc1ccccc1CSc1ncnc2sc3c(c12)CCCC3,-2.4%,-26%,-7%,-8%,-6%,-10%,-10%,5%
COc1cc(OC)cc(-c2nc3nc(C)c(CCC(=O)Nc4cc(C)cc(C)c4)c(C)n3n2)c1,1.6%,-17%,1%,.,.,.,-12%[46.1 µM],2%[46.1 µM]
Nc1ccc(Cl)c(NC(=O)c2cccs2)c1,-0.4%,24%,-3%,0%,-18%,5%,2%,9%
CC1(C)CC(=O)C=C(NC2CC(C)(C)NC(C)(C)C2)C1,4.9%,.,-3%,1%,-3%,-16%,12%,10%
CC1CCc2sc(C(=O)N=Nc3c(O)[nH]c4ccccc34)cc2C1 (stereo not given),-2.3%,.,-10%,0%,.,6%,.,.
Nc1ccc2nc3c(c(Cl)c2c1)CCCC3,.,16%,.,8%,-21%,-8%,?,-28%
O=C(CN1CCN(c2ccc(F)cc2)CC1)Nc1ccc(F)c(F)c1,-1.0%,-24%,-10%,-2%,-25%,-12%,?,-19%
CC(=O)Nc1ccc(Br)cc1C(=O)C(=O)O,2.0%,-14%,-14%,5%,2%,-7%,1%,-26%
CC(=O)Nc1ccc(OCC(=O)NCc2ccc3c(c2)OCO3)cc1,.,12%,.,2%,7%,.,4%,7%
O=S(=O)(Nc1nc(-c2sccc2Cl)cs1)c1cc(Cl)ccc1Cl,20µM*,-15%,?,-22%,-5%,-103%,-14%,3%

# The final six compounds of the section before are carried over, then new ones follow:
SMILES,Cruzain inh Det,2A StopGo,Cruzain inh noDet,SARS PLP yeast,RE007 growth inh,NS1 inh,Marburg entry inh,LASV entry inh
CC1CCc2sc(C(=O)N=Nc3c(O)[nH]c4ccccc34)cc2C1 (stereo not given),-2.3%,.,-10%,0%,.,6%,.,.
Nc1ccc2nc3c(c(Cl)c2c1)CCCC3,.,16%,.,8%,-21%,-8%,?,-28%
O=C(CN1CCN(c2ccc(F)cc2)CC1)Nc1ccc(F)c(F)c1,-1.0%,-24%,-10%,-2%,-25%,-12%,?,-19%
CC(=O)Nc1ccc(Br)cc1C(=O)C(=O)O,2.0%,-14%,-14%,5%,2%,-7%,1%,-26%
CC(=O)Nc1ccc(OCC(=O)NCc2ccc3c(c2)OCO3)cc1,.,12%,.,2%,7%,.,4%,7%
O=S(=O)(Nc1nc(-c2sccc2Cl)cs1)c1cc(Cl)ccc1Cl,20µM*,-15%,?,-22%,-5%,-103%,-14%,3%
CC1(C)Cc2ccccc2-c2nc3ccccc3c(=O)n21,-3.8%,?,-5%,-9%,-13%,-43%,?,-23%
COc1ccc2c(c1)CC/C(=C\c1ccc(OC)c(Cn3nc(C)cc3C)c1)C2=O,-3.1%,?,-5%,-2%,3%,9%,?,?
Cn1c(=O)c2[nH]c(CCCCc3nc4ccccc4[nH]3)nc2n(C)c1=O,1.3%,-8%,-1%,.,-4%,-8%,0%,0%
O=C(CC1C(=O)NCCN1C(=O)Nc1ccccc1)Nc1ccc2c(c1)OCO2 (stereo not given),3.4%,7%,-4%,0%,-7%,0%,2%,11%
BrCCOCCOc1ccc2ccccc2c1,-7.5%,41%[activator],10%,-4%,-3%,4%,-4%,9%
Cc1ccc(NC(=O)CCn2nc(C)c(S(=O)(=O)N3CCCCC3)c2C)cc1Cl,-8.2%,-17%,?,.,.,.,.,0%[46.1 µM]
O=C(O)c1nnsc1-c1csnn1,1.2%,-19%,-7%,.,11%,-1%,?,15%
CC(=O)N1C(=O)NC2=C(C(=O)CCC2)C1c1cccc([N+](=O)[O-])c1 (stereo not given),.,0%,.,0%,4%,1%,?,1%
O=C(NCCCCc1ccccc1)c1ccccc1Cl,.,48%[activator],.,-9%,2%,.,17%[46.1 µM],-1%
Cc1ccccc1CNC(=O)C(=O)Nc1nccs1,.,-1%,.,0%,-10%,.,2%[46.1 µM],10%[46.1 µM]
O=C(CNC(=O)c1ccccc1Cl)N/N=C/C=C/c1ccccc1,-5.6%,-1%,-4%,22%,1%,-2%,-22%[46.1 µM],18%
Cc1ccccc1OCC(=O)Nc1ccccc1NC(=O)c1ccco1,.,-10%,.,-1%,0%,6%,-6%[46.1 µM],20%
Cc1ccc(S(=O)(=O)CC(=O)Nc2ccc(F)c(F)c2F)cc1,.,7%,.,0%,-10%,0%,-6%[46.1 µM],1%[46.1 µM]
CC1=C(C(=O)OCC2CCCO2)C(c2coc3ccccc3c2=O)C2=C(CC(C)(C)CC2=O)N1 (stereo not given),.,4%,.,-3%,7%,.,30%[14.2 µM],8%
C=CCN(CC=C)C(=O)c1cccc(OC2CCN(S(=O)(=O)N(C)C)CC2)c1,.,?,.,0%,-2%,0%,-22%[46.1 µM],?
CCCCc1nc(SCC(=O)Nc2ncccn2)n[nH]1,9.3%,0%,-2%,4%,3%,3%,20%[46.1 µM],0%
CCc1ccc(NC(=O)c2sc3nc4c(cc3c2N)CN(CC)CC4)cc1,-5.3%,-26%,-4%,.,.,.,?,28%[46.1 µM]
Cc1cc(C)c2c(N)c(C(=O)Nc3ccccc3Br)sc2n1,.,35%[activator],.,-7%,-7%,-8%,.,.
Cc1ccc(C)c(OCCn2cc(C(=O)O)c3ccccc32)c1,.,-15%,.,-5%,6%,.,4%[46.1 µM],1%[46.1 µM]
COc1ccc(NS(=O)(=O)c2ccc(N3CCOCC3)c(NC(=O)/C=C/C(=O)O)c2)cc1,.,-8%,.,.,4%,.,?,1%
Cc1cc(C)nc(Nc2n[nH]c(Cc3ccccc3)n2)n1,1.2%,.,?,-7%,.,-1%,.,.
S=C(Nc1ccc(Cl)cc1)N(CCCN1CCOCC1)Cc1ccco1,0.8%,22%,9%,-3%,-2%,-2%,?,-2%
COc1ccc(OCC(=O)NN2Cc3ccccc3C2=N)cc1,5.8%,21%,-8%,6%,13%,3%,-17%,?
CC(=O)N1CCCc2ccc(NS(=O)(=O)c3ccc(C)cc3)cc21,.,-2%,.,5%,15%,.,?,-28%
O=C(NCCN1CCCCCC1)C1CC(=O)N(CCc2ccccc2)C1 (stereo not given),2.6%,8%,-2%,-3%,-1%,-3%,2%,0%
N#Cc1ccc(OCC(=O)OCC(=O)Nc2ccc(N3CCOCC3)cc2)cc1,.,-19%,.,.,3%,.,7%[46.1 µM],-1%

# Of the compounds above, these have a cyano group:
SMILES,Cruzain inh Det,2A StopGo,Cruzain inh noDet,SARS PLP yeast,RE007 growth inh,NS1 inh,Marburg entry inh,LASV entry inh
Cc1cc(O)ccc1N/C=C(\C#N)c1nc2ccccc2o1,-3.2%,9%,-7%,7%,-24%,7%,0%,29%
N#Cc1ccc(OCC(=O)OCC(=O)Nc2ccc(N3CCOCC3)cc2)cc1,.,-19%,.,.,3%,.,7%[46.1 µM],-1%
